Assay outcomes (PubChem)
KCNQ2 inh: KCNQ2 potassium channel inhibitors, primary screen, cell-based, CHO-K1, FluxOR thallium flux, B-score (AID 2156); 20 min; stronger effect = lower value; only compounds with negative scores are shown here; some inactives read as strong as hits; B-score at 10 µM; 1.1% of 310,000 active;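 active means fluorescence ratio B-score at most minus 3 library SDs, with starting brightness B-score within 2 library SDs, cut at about -5.5 in these data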
Target sequence (O88943 whole entry, looked up): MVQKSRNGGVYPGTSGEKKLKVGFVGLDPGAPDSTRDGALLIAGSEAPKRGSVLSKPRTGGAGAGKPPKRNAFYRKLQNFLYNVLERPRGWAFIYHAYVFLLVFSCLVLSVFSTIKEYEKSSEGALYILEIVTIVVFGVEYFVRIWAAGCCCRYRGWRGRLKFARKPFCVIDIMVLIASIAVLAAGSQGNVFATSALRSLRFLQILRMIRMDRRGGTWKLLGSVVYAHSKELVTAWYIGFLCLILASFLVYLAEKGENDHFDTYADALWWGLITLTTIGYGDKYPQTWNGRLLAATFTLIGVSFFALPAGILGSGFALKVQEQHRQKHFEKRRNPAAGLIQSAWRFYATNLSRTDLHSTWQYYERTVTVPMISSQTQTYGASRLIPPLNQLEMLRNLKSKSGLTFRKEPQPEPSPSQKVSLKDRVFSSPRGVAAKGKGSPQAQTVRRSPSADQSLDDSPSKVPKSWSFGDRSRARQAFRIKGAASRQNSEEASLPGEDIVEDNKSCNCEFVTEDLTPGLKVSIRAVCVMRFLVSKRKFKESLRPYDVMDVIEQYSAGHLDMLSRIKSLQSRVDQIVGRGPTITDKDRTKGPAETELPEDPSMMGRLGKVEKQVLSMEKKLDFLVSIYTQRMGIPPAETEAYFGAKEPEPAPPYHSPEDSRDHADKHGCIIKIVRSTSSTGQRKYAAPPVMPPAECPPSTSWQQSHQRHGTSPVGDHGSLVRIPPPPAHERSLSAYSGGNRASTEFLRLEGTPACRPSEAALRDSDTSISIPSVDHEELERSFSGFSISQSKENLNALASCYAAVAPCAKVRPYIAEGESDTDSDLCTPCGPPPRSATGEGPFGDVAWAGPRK
KCNQ2 inh baseline: recorded beside KCNQ2 inh, whose call it bears; B-score; measured here: initial fluorescence intensity artifact check;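 brightness before thallium and not channel activity; 0 = typical well and far values either way flag optical interference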
* = called active by the depositor; i = inactive. Some of the compounds tested; rates above refer to the full screens.

Under each structure: KCNQ2 inh baseline, KCNQ2 inh
COc1ccccc1Nc1nc(N)nc(CSC(=S)N2CCC(C)CC2)n1
    0.25, i
COc1ccc(Br)cc1/C=N/NC(=O)CNC(=O)/C=C/c1ccccc1
    0.41, i
O=C(CCC(=O)OCC(=O)c1ccccc1)NC1CCCCC1
    0.65, i
Cc1cccc(NCc2nc(SCC(=O)Nc3ccccc3Br)n[nH]2)c1
    -2.4, i
COc1ccc(OCC(=O)NNC(=O)C(=O)N2CCCC2)cc1
    -0.14, i
Cc1ccc2c(c1)CC1(CN2C)C(=O)OC(C)(C)OC1=O
    -1.3, i
O=C(NCCc1cccc(Cl)c1)c1cc2ccccc2oc1=O
    0.96, i
CCOC(=O)CNC(=O)c1cn(CC)c(=O)c2cc(OC)c(OC)cc12
    1.4, i
O=C(COc1nc2ccccc2nc1N1CCOCC1)N1CCc2ccccc21
    0.09, i
CN(C)c1ccc(/C=C(/C#N)C(=O)NCc2ccccc2)o1
    2.9, i
NC(=O)c1ccc(C(F)(F)F)n(Cc2ccc(Cl)cc2)c1=O
    -0.14, i
COc1cccc(-c2nc(-c3ccccc3)c(-c3ccccc3)[nH]2)c1OCC(=O)O
    -0.04, i
CC(C)C1OC2c3cccc4cccc(c34)C2N1c1ccccc1 (configuration not stated)
    -1.5*, -5.7*
c1csc(C2Nc3ccccc3-c3nc4ccccc4n32)c1 (configuration not stated)
    1.4, i
O=C(COC(=O)c1ccccc1F)NNC(=O)c1ccccc1
    -0.25, i
O=C1c2cccc(O)c2C(=O)c2c(O)cc(CO)cc21
    0.84, i
N#Cc1ncn(-c2ccc(Oc3ccccc3)cc2)c1N
    0.64, i
CCOc1ccccc1NC(=O)c1ccc2nccnc2c1
    1.1, i
Cc1nc2ccccc2n1CCOc1ccc([N+](=O)[O-])cc1
    1.2, i
C=CCc1ccc(OCCOc2ccc(/C=N/n3cnnc3)cc2OCC)c(OC)c1
    -0.85, i
COc1cc(/C=C2/NC(=O)NC2=O)ccc1OCC(=O)Nc1ccc(F)cc1
    0.36, i
CS(=O)(=O)N1CCN(C/C=C/c2ccccc2)CC1
    0.03, i
COc1ccc(Cn2cccc(NC(=O)Nc3cccc(C#N)c3)c2=O)cc1
    0.32, i
Clc1cccc(-c2ccnc3nc(-n4cccc4)nn23)c1
    -1.3, i
CCOC(=O)c1ccc2c(c1)nc(-c1ccccn1)n2CC
    0.43, i
Cc1ccc(NC(=O)c2ccc(NCCN)c([N+](=O)[O-])c2)cc1
    1.7, i
COc1ccc(NC(=O)c2c(NC(=O)CNCc3ccco3)sc3c2CCC3)c(OC)c1
    -0.26, i
CCn1cc(C(c2ccccc2)C(C(C)=O)[N+](=O)[O-])c2ccccc21 (configuration not stated)
    1.3, i
CCCCC(=O)Nc1ccc2c(c1)nc(CCN1CCOCC1)n2C
    -0.07, i
CSc1cccc(NC(=S)N(CCCN2CCCC2)Cc2cccn2Cc2ccc(Cl)cc2)c1
    -1.9, i
Oc1ccc(CNc2ccccc2)c2cccnc12
    1.5, i
c1ccc2c(c1)N1CCN=C1N2CCN1CCCCC1
    0.95, i
CSCCOC(=O)C1=C(C)NC(=O)CC1c1ccccc1Cl (configuration not stated)
    -0.14, i
O=C(c1ccco1)N1N=C(c2cccs2)CC1c1ccc(F)cc1 (configuration not stated)
    1.2, i
CCCC(c1nnnn1C(C)(C)CC)N(Cc1ccco1)Cc1cc2ccc(OC)cc2[nH]c1=O (configuration not stated)
    -1.7, i
COCCN=C1N[C@@H](c2cccc(C(F)(F)F)c2)C(C(=O)OC)=C(C)N1Cc1ccccc1
    -0.1, i
O=C(COC(=O)Cc1cccs1)Nc1ccc(OC(F)(F)F)cc1
    -0.92, i
O=C(Nc1cccn2ncnc12)c1ccc(Cl)cc1
    -1.7, i
CN(C)/C=C(/C#N)C(=O)c1cccc(Oc2ccc(C(C)(C)C)cc2)c1
    1.6*, -7.8*
COc1ccc(/C=c2\s/c(=C\C(=O)C(C)(C)C)[nH]c2=O)cc1O
    -0.03, i
O=[N+]([O-])c1cc(Cl)cc(/C=N/NC(=S)Nc2cc(S(=O)(=O)N3CCOCC3)ccc2Cl)c1O
    -3.6*, -8.1*
Cc1ccc(NC(=O)c2nnn(-c3cc(C)cc(C)c3)c2N)cc1
    -0.62, i
COCCN(Cc1cn(C)nc1-c1ccccc1F)C(C)C
    -0.54, i
CCC(=O)N1CCN(c2ccccc2NC(=O)c2ccc(-c3cccc([N+](=O)[O-])c3)o2)CC1
    -0.96, i
Cc1ccccc1CSc1nnc(-c2cccs2)n1Cc1ccco1
    -0.77*, -9.9*
Cc1ccc2c(Cl)cc(Cl)c(OCC(=O)NC(=O)NCc3ccco3)c2n1
    -1.1, i
COc1cc(C(=O)Nc2cc(Cl)ccc2-n2cncn2)ccc1OC(F)F
    -1.4, i
N#C/C(=C\c1cc([N+](=O)[O-])ccc1Cl)C(N)=O
    -1.2, i
COc1ccc(CNc2ncc(-c3ccc(Br)cc3)n2C)cc1OC
    2.4, i
COC(=O)[C@H](Cc1c[nH]c2ccccc12)NC(=O)NCc1ccccc1
    2.1, i
CN1CCc2nc3ccccc3c(C(=O)OCC(=O)N(CCC#N)c3ccccc3)c2C1
    -2.2, i
O=S(=O)(CCN(CCS(=O)(=O)C(F)(F)F)CC1CCCO1)C(F)(F)F (configuration not stated)
    0.33, i
CC1=NN(CCc2ccccn2)C(=O)CC1
    0.73, i
CC(NCCN(C)C)C(=O)C12CC3CC(CC(C3)C1)C2 (configuration not stated)
    0.37, i
Cn1cc(CCC(=O)NCc2ccc3c(c2)OCO3)c2ccccc21
    0.42, i
Cc1ccc(-c2csc3ncnc(N4CCN(C(=O)c5ccccc5)CC4)c23)cc1
    -0.41, i
N#CCCN1CCN(S(=O)(=O)c2ccc3c(c2)OCCCO3)CC1
    1.3, i
Cc1oc(-c2ccccc2Cl)nc1CSCC(=O)O
    1.5, i
COc1cc(-c2cc(-c3ccc(N)cc3)[nH]c(=O)c2C#N)cc(OC)c1OC
    0.91, i
O=C(c1cc(-c2cccc(Cl)c2)on1)N1CCN(c2ccccc2)CC1
    0.04, i

New compounds follow
Under each structure: KCNQ2 inh baseline, KCNQ2 inh
Cc1cccc(NC(=O)Cn2nc(-c3cccs3)ccc2=O)c1C
    -0.31, i
COc1ccccc1NC(=O)CN1CCN(CC(=O)Nc2ccc(OCc3ccccc3)cc2)CC1
    -0.23, i
O/N=C(/CN(O)/C=C1/C=CC=N1)c1cccs1
    0.94, i
Cc1cc(-c2ccc(N3C(=O)CCC3=O)c(C)c2)ccc1N1C(=O)CCC1=O
    -1.1, i
CCN1C(=O)C(CC(=O)NC)N(NC(=O)c2ccccc2)C1=S (configuration not stated)
    0.67, i
COCc1nnc(NC(=O)c2ccc3c(c2)OCO3)s1
    0.47, i
Cc1ccc(-n2c(SCC(N)=O)nnc2-c2cnccn2)cc1
    -0.21, i
COc1cc(C(=O)Nc2ccccc2N2CCOCC2)ccc1OCC(=O)N1CCOCC1
    0.05, i
O=C(/C=C/c1cccc([N+](=O)[O-])c1)Nc1ccc(Cl)cn1
    0.16, i
O=C(C1CCCO1)N1CCN(C(=S)Nc2ccc(F)c(Cl)c2)CC1 (configuration not stated)
    1, i
CCCC(=O)N1CCN(c2ccc(NC(=O)c3ccc(Br)o3)cc2)CC1
    -0.81, i
c1ccc2c(c1)NCC1CCCN21 (configuration not stated)
    -0.17, i
CCOC(=O)Cc1csc(Nc2c(C)n(C)n(-c3ccccc3)c2=O)n1
    1.6, i
CC(=O)Nc1ccc(Nc2nc(C(F)(F)F)nc3c2nnn3Cc2ccccc2Cl)cc1
    3.3, i
CCOc1ccc(/C(C)=N/NC(=O)Cn2nc([N+](=O)[O-])cc2C)cc1
    0.79, i
Cc1[nH]c2ccccc2c1C(=O)CN1CCC(C)CC1
    0.67, i
O=C(COc1ccc(Cl)cc1Cl)N1CCCN(C(=O)COc2ccc(Cl)cc2Cl)CC1
    0.19, i
O=C1c2ccccc2C(=O)N1CCCC(=O)N1CCc2ccccc21
    -0.98, i
CNC(=O)CCc1ccc(OC)cc1
    -1.1, i
O=C(O)CCCn1nc(C(F)(F)F)c2c1CCCCC2
    -0.01, i
CC12CCC(c3n[nH]c(=S)nc31)C2(C)C (configuration not stated)
    0.4, i
O=C(NCCCN1CCCC1=O)Nc1ccc([N+](=O)[O-])cc1
    -0.26, i
O=C(Nc1cnn(Cc2c(Cl)cccc2Cl)c1)C(c1ccccc1)c1ccccc1
    -2, i
Cc1ccc(N(C)C(=O)C2CCCN2S(=O)(=O)c2ccc3c(c2)n(C)c(=O)c(=O)n3C)cc1 (configuration not stated)
    -0.05, i
C#CC[N+](C)(C)CC#Cc1ccccc1
    1, i
COc1cc(NC(=O)c2ccc([N+](=O)[O-])o2)ccc1NC(=O)c1ccco1
    0.91, i
O=C(NCC(=O)N(Cc1ccccc1)C(C(=O)NC1CCCC1)c1ccco1)c1ccco1 (configuration not stated)
    0.06, i
O=C(CCN1CCCCO1)N1CCCC(N2CCN(c3ccc(F)cc3)CC2)C1 (configuration not stated)
    1.6, i
CCCn1nc(C(=O)Nc2cccc(C(=O)OC)c2)c2ccccc2c1=O
    1, i
CCCCN1CCc2[nH]c(=S)[nH]c(=O)c2C1
    1.9, i
Cc1cc(=O)oc2cc(OCC(=O)Nc3nnc(CC(C)C)s3)ccc12
    2.1, i
CC1=CC(C)C2C(=O)N(c3ccccc3)C(=O)C2C1 (configuration not stated)
    -0.23, i
CCOC(=O)c1nnn(-c2nonc2N)c1CN(C)C1CCCCC1
    0.14, i
CCCCn1nnnc1NCc1ccc(N2CCCC2)cc1
    2.4, i
CN(C)CCCN(C(=O)CCc1ccccc1)c1nc2ccc(Br)cc2s1
    0.22, i
CCC(C)(C)NC(=O)C(c1ccc(OC)cc1)N(C(=O)CCC(=O)Nc1cc(C)on1)c1ccc(F)cc1 (configuration not stated)
    -1.4, i
O=[N+]([O-])c1cc(/C=N\O)ccc1Oc1ccc(F)cc1
    0.14, i
Cc1cc(Nc2cccc(F)c2)nc(NCc2ccccc2)n1
    0.46, i
CC(C)c1ccc(NC(=O)NC2CCCCC2)cc1
    1.2, i
COc1ccc(N2C(=O)C(=O)/C(=C(/O)c3ccc(C)cc3)C2c2cccnc2)cc1 (configuration not stated)
    0.21, i

Quoted at random: 5 records from the list, in no set order.
Under each structure: KCNQ2 inh baseline, KCNQ2 inh
CC(C)c1ccc(NC(=O)NC2CCCCC2)cc1
    1.2, i
CCCn1nc(C(=O)Nc2cccc(C(=O)OC)c2)c2ccccc2c1=O
    1, i
CC1=CC(C)C2C(=O)N(c3ccccc3)C(=O)C2C1 (configuration not stated)
    -0.23, i
O=C(CCN1CCCCO1)N1CCCC(N2CCN(c3ccc(F)cc3)CC2)C1 (configuration not stated)
    1.6, i
Cc1cc(=O)oc2cc(OCC(=O)Nc3nnc(CC(C)C)s3)ccc12
    2.1, i

(continued)
Under each structure: KCNQ2 inh baseline, KCNQ2 inh
CN(Cc1nccn1C)C(=O)C1CCC(=O)N(CCc2ccc(Cl)cc2)C1 (configuration not stated)
    -1.9, i
NS(=O)(=O)c1cccc(NC(=O)COC(=O)Cc2ccc(Cl)cc2)c1
    0.72, i
O=C(Cn1ncc(Cl)c(Cl)c1=O)N1CCN(S(=O)(=O)c2ccc3ccccc3c2)CC1
    -0.25, i
COc1ccc(OC(=O)C2CC(=O)N(c3ccc(C)cc3)C2)cc1 (configuration not stated)
    -1.3, i
Cc1ccc(NC(=O)c2c(-c3ccccc3)noc2C)nc1
    0.03, i
COc1ccc(S(=O)(=O)N2CCN(C(=O)CN3C(=O)NC4(CCCC4)C3=O)CC2)cc1
    -0.01, i
c1ccc2c(N3CCOCC3)c3c(nc2c1)CCC3
    0.69, i
COc1ccc(OC2CCN(S(=O)(=O)c3cccc(F)c3)CC2)cc1
    0.01, i
COc1ccc(NCC(=O)Nc2ccc(Cl)cc2C)c(OC)c1
    0.76, i
N#CC1(Cc2ccc([N+](=O)[O-])cc2)c2ccccc2C=CN1C(=O)c1ccccc1 (configuration not stated)
    2.1, i
Cc1nc([N+](=O)[O-])c(N2CCN(C)CC2)n1Cc1ccccc1
    -0.35, i
COCCNC(=O)CN(C(=O)CCC(=O)Nc1ccccn1)c1ccc(F)cc1
    -0.18, i
Cc1cc(Cl)ccc1OCc1nc(-c2ccc(O)cc2)n[nH]1
    -0.04, i
CN(C)c1ccc(C(CC(=O)c2ccccc2)C2CCCCC2=O)cc1 (configuration not stated)
    0.65, i
Cc1c(C(=O)NCCc2ccc3c(c2)OCCO3)oc2ccccc12
    0.89, i
O=C(NC1CCN(Cc2ccccc2)CC1)C1COc2ccccc2O1 (configuration not stated)
    1.5, i
O=C(CN1C(=O)CCSc2ccccc21)Nc1ccc2c(c1)OCO2
    -0.22, i
COc1ccc(CC(=O)N(C)CC(=O)Nc2ccccc2SC)cc1
    -0.55, i
Cc1cccc(NC(=O)c2ccc(-c3ccccc3[N+](=O)[O-])o2)c1
    0.01, i
CCOc1cc(C)c(S(=O)(=O)Nc2ccc(Cl)cn2)cc1C
    0.01, i
CN(C)/C=N/C1=C(C#N)C(c2ccc(Br)cc2)c2ccc3ccccc3c2O1 (configuration not stated)
    0.54, i
Cn1cc(/C=C(\C#N)C(=O)Nc2ncc(Cc3cccc(Cl)c3)s2)c2ccccc21
    2.3, i
CC1CC(=O)N(c2ccc(NCCc3ccc(O)cc3)c([N+](=O)[O-])c2)C1=O (configuration not stated)
    -1.1, i
